Source: PubChem (Fisher Drug Discovery Resource Center)
NPYLR7 agonist: agonists of mosquito NPYLR7 receptor, primary screen, cell-based, Aedes aegypti, calcium fluorescence, mosquito biting behavior; activation, % at 10 µM; Aedes aegypti neuropeptide Y-like receptor 7 (NPYLR7); HEK293T NPYLR7/Galpha15, GCaMP6s calcium fluorescence; AID 1259423, 2018; 270,000 tested, 0.15% active; in the data active = activation above about 40%;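 note: 0% = vehicle and 100% = reference agonist at the receptor; some compounds past the cut are filed as inactive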
NPYLR7 agonist max-min: further read-out of NPYLR7 agonist, marked with its call; activation, %; measured here: Max-Min RFU normalised activation; some inactives read as strong as hits;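 span of the calcium signal over five minutes; 0% = vehicle and 100% = native peptide agonist; compound fluorescence can raise it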
Active calls of the source: *; & = joins results of further samples. Only part of the results is shown, so the mix of outcomes need not match the whole.

Screening COc1ccc(-c2cc(CC#N)no2)cc1 returned NPYLR7 agonist 0.3 and NPYLR7 agonist max-min -2.4.
For Cc1ccc(N(CC(=O)NC2CCCCC2)S(C)(=O)=O)cc1 the results were NPYLR7 agonist -22.7 and NPYLR7 agonist max-min -24.9.
Screening O=C(c1ccc(I)c(F)c1)N1CCCC(O)C1 (stereo unspecified) returned NPYLR7 agonist 1.4 and NPYLR7 agonist max-min 9.5.
COc1cccc(Cn2c(CCn3cccn3)n[nH]c2=O)c1 was read as NPYLR7 agonist 11.5 and NPYLR7 agonist max-min 10.3.
Screening O=c1[nH]c(SCCc2ccccc2)nc2c1cnn2CCO returned NPYLR7 agonist 4.4 and NPYLR7 agonist max-min 2.2.
`Cc1c(C)c2cc3c4c(oc3cc2oc1=O)CCCC4` gave NPYLR7 agonist 1.5 and NPYLR7 agonist max-min 7.2.
`O=C(Cc1ccc(Cl)cc1)NCC(O)CN1CCCC1=O` (stereo unspecified) gave NPYLR7 agonist 4.8 and NPYLR7 agonist max-min 0.9.
`O=[N+]([O-])c1ccc(Cl)cc1NC1C2CC3CC(C2)CC1C3` (stereo unspecified) gave NPYLR7 agonist 0.7 and NPYLR7 agonist max-min 0.4.
For O=C(c1coc(CN(Cc2ccc(F)cc2)Cc2ccccc2Cl)n1)N1CCCC1 the results were NPYLR7 agonist 12.5 and NPYLR7 agonist max-min 21.0.
For COc1cccc(CCC2CCCN(C(=O)CNC(N)=O)C2)c1 (stereo unspecified) the results were NPYLR7 agonist 7.7 and NPYLR7 agonist max-min 6.9.
For CCOC(=O)c1ccc(NC(=O)N2CCSC2c2cccc(Oc3ccccc3)c2)cc1 (stereo unspecified) the results were NPYLR7 agonist -12.4 and NPYLR7 agonist max-min -5.1.
Screening CC(C)(O)C#Cc1cccc(C(=O)NCc2noc(-c3ccccc3)n2)c1 returned NPYLR7 agonist 16.1 and NPYLR7 agonist max-min 11.4.
CNC(=O)c1cc(Cl)ccc1NC(=O)c1ccc(S(=O)(=O)NC)cc1 was read as NPYLR7 agonist 17.6 and NPYLR7 agonist max-min 16.4.
For Cc1ccc(CN2CCCC2(C)C(=O)NC(C)C)cc1 (stereo unspecified) the results were NPYLR7 agonist 3.0 and NPYLR7 agonist max-min 2.3.
Screening COCc1cccc(-c2csc(C(NC(C)=O)c3cccc(F)c3)n2)c1 (stereo unspecified) returned NPYLR7 agonist 4.0 and NPYLR7 agonist max-min 0.8.

Molecules from the list above containing an NH in an aromatic ring (2):
COc1cccc(Cn2c(CCn3cccn3)n[nH]c2=O)c1 was read as NPYLR7 agonist 11.5 and NPYLR7 agonist max-min 10.3.
Screening O=c1[nH]c(SCCc2ccccc2)nc2c1cnn2CCO returned NPYLR7 agonist 4.4 and NPYLR7 agonist max-min 2.2.

The listing continues:
COc1ccccc1C(=O)N1CCN(c2nc(CC(C)C)nc3onc(-c4cccc(Oc5ccccc5)c4)c23)CC1 was read as NPYLR7 agonist 19.6 and NPYLR7 agonist max-min 2.1.
CC1(C2CCN(C(=O)c3csc4c3CCCC4)CC2)NC(=O)N(C2Cc3ccccc3C2)C1=O (stereo unspecified) was read as NPYLR7 agonist 0.6 and NPYLR7 agonist max-min -1.8.
`Cc1cc(C(=O)Nc2ccc3sc(C)nc3c2)c(C)o1` gave NPYLR7 agonist -10.8 and NPYLR7 agonist max-min -10.5.
For CCOCCn1c(=O)c2c(nc3n(CCCOC)c(C)c(C)n23)n(C)c1=O the results were NPYLR7 agonist 1.0 and NPYLR7 agonist max-min -4.7.
Screening C=CCNC(=O)[C@@H]1CCCC[C@@H]1C(=O)N(C)Cc1cccc2cnccc12 returned NPYLR7 agonist 1.2 and NPYLR7 agonist max-min -5.0.
CCOC(=O)Nc1cc(C)nn1-c1nc(-c2cccc(OC)c2)cs1 was read as NPYLR7 agonist -7.4 and NPYLR7 agonist max-min -9.3.
For O=C(CSc1ncnc2c1oc1ccccc12)c1ccccc1 the results were NPYLR7 agonist -8.2 and NPYLR7 agonist max-min -9.2.
Screening COc1cc(C)c(CN2CCN(Cc3nc4cc(Cl)ccc4c(=O)[nH]3)CC2)cc1OC returned NPYLR7 agonist 5.4 and NPYLR7 agonist max-min 5.7.
`CC(C)c1nc2cc(NC(=O)C3CSC4(C)CCC(=O)N34)ccc2o1` (stereo unspecified) gave NPYLR7 agonist 1.8 and NPYLR7 agonist max-min 0.7.
CC(=O)N1CCC(N(C)Cc2cc(-c3cccs3)n[nH]2)CC1 was read as NPYLR7 agonist -4.5 and NPYLR7 agonist max-min -4.5.
Screening CN(C1CCCCC1)S(=O)(=O)c1ccc(C(=O)Nc2n[nH]c(C(F)(F)F)n2)cc1 returned NPYLR7 agonist -6.3 and NPYLR7 agonist max-min -6.5.
Screening C=CCn1c(C)c(C)c(S(=O)(=O)c2ccccc2)c1NC(=O)C1CCCO1 (stereo unspecified) returned NPYLR7 agonist 0.2 and NPYLR7 agonist max-min -0.5.
`CCOc1cccc(-c2cnc(NC(C)=O)cn2)c1` gave NPYLR7 agonist 3.7 and NPYLR7 agonist max-min 1.2.
Screening CC1CN(c2cc(Oc3ccc(F)cc3Cl)ncn2)CCN1C(=O)/C=C/c1ccccc1 (stereo unspecified) returned NPYLR7 agonist -4.0 and NPYLR7 agonist max-min -1.4.
Oc1cccc2c(NC(=S)NC3CC3)cccc12 was read as NPYLR7 agonist 0.8 and NPYLR7 agonist max-min 5.5.
For O=C1Nc2ccc(Br)cc2C1=Nc1cc(Cl)cc(Cl)c1 the results were NPYLR7 agonist 8.5 and NPYLR7 agonist max-min 6.9.
COc1cccc(CC(=O)N[C@@H]2c3ccccc3C3(CCNCC3)[C@H]2O)c1 was read as NPYLR7 agonist 8.0 and NPYLR7 agonist max-min 3.0.
Screening O=C(NCc1ccccn1)c1csc(CSc2nnc(-c3ccncc3)n2-c2ccccc2F)n1 returned NPYLR7 agonist 8.7 and NPYLR7 agonist max-min 14.8.
`O=C(NC1CC1)c1csc(COc2cccc(C(F)(F)F)c2)n1` gave NPYLR7 agonist -0.3 and NPYLR7 agonist max-min 2.6.
For CCOC(=O)N1CCN(C(=O)c2cc3c(=O)n4ccccc4nc3n2C)CC1 the results were NPYLR7 agonist 1.0 and NPYLR7 agonist max-min -1.6.
`O=C(CCN1CCCCO1)N1CCCC1c1nc(-c2ccccc2)no1` (stereo unspecified) gave NPYLR7 agonist 17.6 and NPYLR7 agonist max-min 4.0.
Screening O=C(c1ccc2oc(CCCc3ccccc3)nc2c1)N1CCCCC1c1cccnc1 (stereo unspecified) returned NPYLR7 agonist 11.4 and NPYLR7 agonist max-min 0.2.
`COc1ccc(NC(=O)C2CCN(C(=O)[C@H](C)NC(=O)Nc3ccccc3OC(F)F)CC2)cc1` gave NPYLR7 agonist -1.1 and NPYLR7 agonist max-min 15.8.
CC(C)c1noc(OCc2ccccn2)n1 was read as NPYLR7 agonist 6.1 and NPYLR7 agonist max-min 4.5.
COc1ccc(-c2nc(=S)c3c([nH]2)Oc2ccccc2C3)cc1OC was read as NPYLR7 agonist 7.6 and NPYLR7 agonist max-min 5.1.
Cc1cccc(-c2noc(N3CCCC3)c2CNC(C)C)c1 was read as NPYLR7 agonist -0.4 and NPYLR7 agonist max-min 3.9.
Screening O=C(c1ccc(Cn2ccnc2)o1)N1CCCC1c1ccccn1 (stereo unspecified) returned NPYLR7 agonist 21.9 and NPYLR7 agonist max-min 10.7.
`Cc1cc(C)n(-c2ccc(NC(=O)C3CCN(CC4CC=CCC4)CC3)cc2)n1` (stereo unspecified) gave NPYLR7 agonist 30.6&-10.1 and NPYLR7 agonist max-min 20.7&-16.9.
Cc1ccc(C2(O)CCN(c3nccc(N4CCC(O)C4)n3)CC2)nc1 (stereo unspecified) was read as NPYLR7 agonist -2.5 and NPYLR7 agonist max-min -11.9.
For CCOC(=O)c1c(C)nn(-c2ccc(C(=O)NCCc3cccnc3)cc2)c1C the results were NPYLR7 agonist -2.7 and NPYLR7 agonist max-min -8.5.
`C=CCNC(=O)N1CCN(c2ccccc2OC)CC1` gave NPYLR7 agonist 2.7 and NPYLR7 agonist max-min -2.4.
Screening Nc1nc(Cl)cc(Nc2ccc(C(=O)O)cc2)n1 returned NPYLR7 agonist -1.8 and NPYLR7 agonist max-min -1.0.
`Cc1ccccc1NCCC(=O)NCc1ccccc1F` gave NPYLR7 agonist 0.4 and NPYLR7 agonist max-min -0.5.
CC1C2CCC1(c1ccccc1)C(=O)O2 (stereo unspecified) was read as NPYLR7 agonist -5.3 and NPYLR7 agonist max-min -7.3.
CC1(C)Cc2ccccc2C(NNC(=O)C(F)(F)C(F)(F)C(F)(F)F)=N1 was read as NPYLR7 agonist -11.2 and NPYLR7 agonist max-min -16.1.
`CCC1CCC(Nc2ccc(OC)cc2)(P(=O)(O)O)CC1` (stereo unspecified) gave NPYLR7 agonist 1.2 and NPYLR7 agonist max-min 0.3.
For Cc1sc2ncn(N=Cc3ccco3)c(=O)c2c1C the results were NPYLR7 agonist -7.3 and NPYLR7 agonist max-min -16.5.
For Cc1csc(Sc2nnc(-c3ccccc3)s2)n1 the results were NPYLR7 agonist 8.0 and NPYLR7 agonist max-min 1.7.
CCOC(=O)N1CCN(C(=O)Cn2[nH]c(=O)c3ccccc3c2=O)CC1 was read as NPYLR7 agonist 28.5 and NPYLR7 agonist max-min 23.9.
Screening CC(=O)NC12CC3CC(C1)CC(C(=O)O)(C3)C2 returned NPYLR7 agonist -1.3 and NPYLR7 agonist max-min 0.7.
Screening O=C(CCc1ccco1)N1CCN(Cc2cccc(-c3noc(-c4ccco4)n3)c2)CC1 returned NPYLR7 agonist 21.4 and NPYLR7 agonist max-min 14.2.
O=C(CCC1(Cc2ccsc2)CCC(=O)N1)NCc1ccc2nsnc2c1 (stereo unspecified) was read as NPYLR7 agonist 4.4 and NPYLR7 agonist max-min 0.4.
`CCNC(=O)Nc1cccc(C2SCC(=O)N2c2ccc(C)cc2)c1` (stereo unspecified) gave NPYLR7 agonist -9.1 and NPYLR7 agonist max-min 3.8.
For CCC(c1ccncc1)N(CC)C(=O)C1CCN(C(=O)N(C)C)CC1 (stereo unspecified) the results were NPYLR7 agonist -1.1 and NPYLR7 agonist max-min -1.6.
Screening CC1CCC(N(C)C(=O)C2CCN(S(=O)(=O)c3c(Cl)cccc3Cl)CC2)CC1 (stereo unspecified) returned NPYLR7 agonist -2.9 and NPYLR7 agonist max-min -5.6.

Reprinted from the part before: 6 entries; new compounds follow.
Screening CC(=O)NC12CC3CC(C1)CC(C(=O)O)(C3)C2 returned NPYLR7 agonist -1.3 and NPYLR7 agonist max-min 0.7.
Screening O=C(CCc1ccco1)N1CCN(Cc2cccc(-c3noc(-c4ccco4)n3)c2)CC1 returned NPYLR7 agonist 21.4 and NPYLR7 agonist max-min 14.2.
O=C(CCC1(Cc2ccsc2)CCC(=O)N1)NCc1ccc2nsnc2c1 (stereo unspecified) was read as NPYLR7 agonist 4.4 and NPYLR7 agonist max-min 0.4.
`CCNC(=O)Nc1cccc(C2SCC(=O)N2c2ccc(C)cc2)c1` (stereo unspecified) gave NPYLR7 agonist -9.1 and NPYLR7 agonist max-min 3.8.
For CCC(c1ccncc1)N(CC)C(=O)C1CCN(C(=O)N(C)C)CC1 (stereo unspecified) the results were NPYLR7 agonist -1.1 and NPYLR7 agonist max-min -1.6.
Screening CC1CCC(N(C)C(=O)C2CCN(S(=O)(=O)c3c(Cl)cccc3Cl)CC2)CC1 (stereo unspecified) returned NPYLR7 agonist -2.9 and NPYLR7 agonist max-min -5.6.
`COCCCN(CC(=O)N(CCc1c[nH]c2ccccc12)Cc1ccc(C(F)(F)F)cc1)C(=O)Nc1ccc(Br)cc1` gave NPYLR7 agonist -1.8 and NPYLR7 agonist max-min 0.9.
For CN(C)C(=O)c1cccc(NC(=O)CSCCc2ccccc2)n1 the results were NPYLR7 agonist 2.7 and NPYLR7 agonist max-min 0.6.
`CSc1ncc(CN(CC2CCN(C3CCCC3)CC2)CC2CCCO2)cn1` (stereo unspecified) gave NPYLR7 agonist 4.9 and NPYLR7 agonist max-min 6.1.
Screening Nc1cc(-c2cccc(Cl)c2)nn1-c1ccc(C(=O)NC[C@@H]2CCCO2)cc1 returned NPYLR7 agonist -7.5 and NPYLR7 agonist max-min -11.3.
OCCn1c(-c2cccc3cccnc23)nc2ccccc21 was read as NPYLR7 agonist 7.6 and NPYLR7 agonist max-min 5.0.
Screening Cc1ccccc1N1CCN(c2ncccc2CNC(=O)C2COC(=O)N2)CC1 (stereo unspecified) returned NPYLR7 agonist -4.9 and NPYLR7 agonist max-min -5.3.
Cc1ccc(C)c(S(=O)(=O)N2C(=S)NC(=O)C2C(C)C)c1 (stereo unspecified) was read as NPYLR7 agonist -0.3 and NPYLR7 agonist max-min 2.6.
For COc1ccc(-c2ccc(=O)n(CCCNC(=O)c3ccc(S(N)(=O)=O)cc3)n2)cc1 the results were NPYLR7 agonist 2.2 and NPYLR7 agonist max-min -0.4.
COc1ccc(NC(=O)N2CCN(c3ccc4nnc(C)n4n3)CC2)cc1OC was read as NPYLR7 agonist 1.6 and NPYLR7 agonist max-min 7.6.
O=C(NNc1nc(-c2ccccc2)c2cc(Br)ccc2n1)c1ccccc1Cl was read as NPYLR7 agonist 0.8 and NPYLR7 agonist max-min -3.8.
O=C(c1cccc([N+](=O)[O-])c1)N1CCC2(CC1)SCCN2C(=O)c1cccs1 was read as NPYLR7 agonist 12.9 and NPYLR7 agonist max-min 20.4.
For CC(=O)O/C(C=C(C#N)C#N)=C\C=C\N(C(C)=O)c1ccccc1 the results were NPYLR7 agonist -0.7 and NPYLR7 agonist max-min 0.2.
`Cc1cc(CC(C)NC(=O)c2cccc3ccnn23)n[nH]1` (stereo unspecified) gave NPYLR7 agonist 0.2 and NPYLR7 agonist max-min -3.9.
Screening O=c1o[nH]c(-c2ccccc2)c1-c1ccccc1 returned NPYLR7 agonist -9.3 and NPYLR7 agonist max-min -10.7.

Not a retest: 2 of the compounds above.
For O=C(c1coc(CN(Cc2ccc(F)cc2)Cc2ccccc2Cl)n1)N1CCCC1 the results were NPYLR7 agonist 12.5 and NPYLR7 agonist max-min 21.0.
For COc1cccc(CCC2CCCN(C(=O)CNC(N)=O)C2)c1 (stereo unspecified) the results were NPYLR7 agonist 7.7 and NPYLR7 agonist max-min 6.9.
